# VACV mCherry inh – vaccinia inhibition (mCherry reporter). Potency, µM (series often up to 36.5 µM), without a hit: at the top dose activity change, negative = inhibition, actives largely listed as inhibitors. AID 720579. Vaccinia virus mCherry reporter infection, fluorescence; about a quarter of the inactives have no number. 0.63% of 310,000 active; active = well fitted inhibition curve with a large enough effect; inconclusive = small, poorly fitted or top-dose-only effect; inactive = no such curve, though single readings can be large or run the other way; tested in A549 cells; further: nearly all actives have a fitted effect of over 35% in size; inactives centre near -10
# VACV Venus inh – inhibitors of vaccinia virus (Venus reporter); Vaccinia virus Venus reporter expression, fluorescence; Potency, µM (titrated, usually from 36.5 µM), without a hit: top-dose activity change, negative = inhibition, most hits filed as inhibitors; 0.46% of 330,000 active; AID 720580; active means well fitted inhibition curve with a large enough effect; inconclusive means small, poorly fitted or top-dose-only effect; inactive means no such curve, though single readings can be large or run the other way; tested in A549 cells; further: nearly all actives have a fitted effect of over 30% in size; inactives centre near -10
# * = called active by the depositor; i = inactive; ? = inconclusive; · = no result given; [ ] = another dose, or the depositor's remark. On the % scale 0 is the no-effect control and ±100 the full control effect; potency means the concentration at half of the fitted maximal effect. An unsorted share of the library; any-hit rate near 0.88%.
SMILES,VACV mCherry inh,VACV Venus inh
Cc1cccc(C)c1OCc1cc(C(=O)N(Cc2nccn2C)C(C)C)no1,-3%,-21%
N#Cc1ccccc1OCC(=O)OCC(=O)N1CCCC1,-14%,10%
O=C(COC(=O)/C=C/c1ccc(S(=O)(=O)N2CCCCCC2)cc1)NCc1ccccc1Cl,-16%,-23%
COc1ccc(S(=O)(=O)NCC(c2ccco2)N2CCc3ccccc3C2)cc1 (configuration not stated),-14%,-15%
Cc1ccc(Cl)cc1N(C)C(=O)c1noc2c1CCCCC2,-5%,-15%
CO/C(N)=C(\C#N)N=Cc1ccccc1Cl,-20%,-13%
C[C@@H](c1ccccc1)N1C[C@@H](COCc2ccccc2)Oc2cc(N3CC[C@@H](O)C3)ccc2S1(=O)=O,5%,-3%
CC(=O)OC1CC2C(C)(C)C(=O)CC[C@]2(C)C2CC[C@@]3(C)C(c4ccoc4)OC(=O)C4OC43[C@]12C (some centres not stated),-12%,-8%
O=C(Cn1ccc(NC(=O)OCc2ccccc2)nc1=O)NCCN1CCOCC1,i,7%
CCN1C(=O)NC2C1N(S(C)(=O)=O)CCN2S(C)(=O)=O (configuration not stated),5%[1.46 µM],-9%
OC1(c2cccs2)CN(c2ccc(Cl)cc2)C2=[N+]1CCCS2 (configuration not stated),i,-20%
CN(c1ccccc1)S(=O)(=O)c1cc(C(=O)OCC(N)=O)ccc1Cl,i,-5%

# Next section, overlapping the part above by 2 compounds.
SMILES,VACV mCherry inh,VACV Venus inh
OC1(c2cccs2)CN(c2ccc(Cl)cc2)C2=[N+]1CCCS2 (configuration not stated),i,-20%
CN(c1ccccc1)S(=O)(=O)c1cc(C(=O)OCC(N)=O)ccc1Cl,i,-5%
O=C(NCc1cccnc1)c1nc(-c2ccc(C(F)(F)F)cc2)no1,-9%,-19%
COc1ccc(C(NC(=O)/C=C/c2ccco2)c2ccc(OC)c(OC)c2)cc1 (configuration not stated),i,-1%
COC(=O)c1c(C(=O)OC)c(-c2cccc(C)c2)n2c1CS(=O)C2 (configuration not stated),-3%,-12%
CSc1nnc(-c2cccn(Cc3ccccc3)c2=O)o1,9%,2%
O=C(OCC(=O)N1CCCC1=O)c1cccc(S(=O)(=O)N2CCOCC2)c1,-10%,-17%
CS(=O)(=O)N(CC(=O)N1CCN(c2cccc(Cl)c2)CC1)C1CCCCC1,?,-24%
CSc1nc(N(C)C)c2ccccc2n1,-16%,-5%
COc1cccc(C2CCCN2Cc2nc(CC3CC3)no2)c1 (configuration not stated),-5%,27%
COc1cc(OC)c(CN2CCC(CO)(CCOc3ccccc3)CC2)c(OC)c1,i,-17%
CCOC(=O)c1c(-c2ccc(C)c(C)c2)csc1NC(=O)C1CC=CCC1C(=O)O (configuration not stated),·,-18%
COc1ccc(CN2CCN(Cc3cc4ccccc4o3)CC2CCO)cc1C (configuration not stated),-6%,-8%
COc1ccc(C(=O)NC2CC2)cc1OC1CCN(Cc2ccc(F)cc2Cl)CC1,-7%,-17%
CCOC(=O)[C@@H]1[C@H]2COc3ccc(Br)cc3[C@@H]2N2C(=O)N(c3cccc(Cl)c3)C(=O)[C@@]12C,-20%,-15%
NC(=O)COC(=O)/C=C/c1ccccc1[N+](=O)[O-],-8%,4%
CC(C)(C)c1ccc(S(=O)(=O)Nc2ccccn2)cc1,i,-10%
CCOC(=O)COc1ccc(CC)cc1C(=O)c1ccn2nc(-c3ccc(Cl)cc3)cc2n1,-14%,-17%
Cc1cc(C)nc(N/C(=N\S(=O)(=O)Cc2ccccc2)Nc2ccc(F)c(Cl)c2)n1,-10%,-21%
Cc1ccccc1NC(=O)N1CCc2ccccc2C1,i,-12%
COc1ccc(C(=O)CN(CCC(=O)O)S(=O)(=O)c2ccc([N+](=O)[O-])cc2)cc1,i,-4%
N/C(=N\OC(=O)Cc1ccccc1[N+](=O)[O-])c1ccncc1,-6%,-12%
Cc1ccc(NC(=O)COC(=O)CCC(=O)c2ccc(Cl)cc2)cc1S(=O)(=O)N(C)C,-12%,-1%
CN1C(=O)CC2(C)C1=CCc1scnc12 (configuration not stated),27%,12%
CCN(C(=O)c1cnc(OC)cc1C(F)(F)F)c1ccc(Cl)cc1,-17%,-17%
O=C(OC(C(=O)NCc1ccco1)C(OC(=O)c1ccccc1)C(=O)NCc1ccco1)c1ccccc1 (configuration not stated),-15%,-13%

# Exported as tab-separated lines: part of the list above.
Compound	VACV mCherry inh	VACV Venus inh
COc1ccc(C(=O)CN(CCC(=O)O)S(=O)(=O)c2ccc([N+](=O)[O-])cc2)cc1	i	-4%
N/C(=N\OC(=O)Cc1ccccc1[N+](=O)[O-])c1ccncc1	-6%	-12%
Cc1ccc(NC(=O)COC(=O)CCC(=O)c2ccc(Cl)cc2)cc1S(=O)(=O)N(C)C	-12%	-1%
CN1C(=O)CC2(C)C1=CCc1scnc12 (configuration not stated)	27%	12%

# New compounds follow.
SMILES,VACV mCherry inh,VACV Venus inh
O=C(CCCCCNC(=O)c1ccccc1)C[N+](=O)[O-],i,-5%
Cc1cccc(CNC(=O)c2c3n(c(C)cc2=O)-c2ccccc2SC(c2ccsc2)C3)n1 (configuration not stated),i,-11%
O=S1(=O)N=C(Nc2ccc(N3CCOCC3)c(Cl)c2)c2ccccc21,7%,0%
Nn1nnc2ccccc21,i,-10%
Cc1ccc(C)c(NC(=O)COC(=O)CCc2ccc(S(=O)(=O)N3CCOCC3)cc2)c1,-8%,-3%
CC(NC(=O)Nc1ccc(F)cc1F)c1ccc2c(c1)OCO2 (configuration not stated),-6%,?
COCOc1cc(O)c2c(=O)c(OCOC)c(-c3ccc(OCOC)c(OCOC)c3)oc2c1,-4%,-10%
C#CCNC(=O)C1=C[C@@H](c2ccc(C(F)(F)F)cc2)[C@H](CCCO)[C@@H](OCC)O1,i,-2%
O=C(Nc1ccc(Oc2ccccc2)cc1)c1ccc2nc([C@@H]3O[C@H](CO)[C@H](O)[C@H](O)[C@H]3O)[nH]c2c1,11%,-4%
CCCCN(C)c1c(C)nc2ccc(C(=O)NCCc3c[nH]c4ccccc34)cn12,i,-6%
COc1ccccc1-c1nnc(SCC(=O)NC2CC2)n1C,i,2%
COc1ccc(CCNc2nc3c(-c4cccc(F)c4)nnn3c3ccccc23)cc1OC,-10%,-5%
COc1ccc(Cl)cc1NC(=O)c1ccco1,·,10%
Nc1c(C(=O)OCC(=O)NCc2ccccc2)[nH]c(=O)[nH]c1=O,-7%,-9%
O=C(c1ccc(S(=O)(=O)N2CCCCC2)cc1)N1CCN(CCN2C(=O)c3cccc4cccc(c34)C2=O)CC1,-2%,-4%
CC(=O)c1ccccc1NS(C)(=O)=O,i,-9%
COc1cccc(-c2ccc3c(c2)C2CC3CCN2C(=O)c2ccc(-c3ccccc3)cc2)c1 (configuration not stated),?,-18%
O=C(COC(=O)CCc1c[nH]c2ccccc12)NCc1ccc(Cl)cc1,-16%,-5%
O=C(c1cccn2c(=O)c3cc(Cl)ccc3nc12)N1CCOCC1,i,-11%
CC(NC(=O)c1ccccc1O)c1ccccc1 (configuration not stated),-4%,-16%
Cc1cc(F)cc(-c2cc(C(=O)NCc3ccccn3)[nH]n2)c1,i,-6%
CCN(CC)CCNC(=O)Cn1ncc2ccccc2c1=O,0%,-10%
CC(C)C(NC(=O)OCc1ccccc1)C(=O)NC(Cc1c[nH]c2ccccc12)C(=O)O (configuration not stated),1%,4%
CCOc1ccc(S(=O)(=O)NCCc2c(C)[nH]c3c(Cl)cccc23)cc1C,-13%,-14%

# Single values from above:
# VACV Venus inh, Nc1c(C(=O)OCC(=O)NCc2ccccc2)[nH]c(=O)[nH]c1=O stands at -9%
# VACV mCherry inh, CCN(CC)CCNC(=O)Cn1ncc2ccccc2c1=O stands at 0%
# VACV Venus inh, CC(C)C(NC(=O)OCc1ccccc1)C(=O)NC(Cc1c[nH]c2ccccc12)C(=O)O (configuration not stated) stands at 4%
# VACV Venus inh, COc1cccc(-c2ccc3c(c2)C2CC3CCN2C(=O)c2ccc(-c3ccccc3)cc2)c1 (configuration not stated) stands at -18%
# VACV Venus inh, CC(NC(=O)c1ccccc1O)c1ccccc1 (configuration not stated) stands at -16%

# Next compounds:
SMILES,VACV mCherry inh,VACV Venus inh
COc1cccc(NC(=O)N(Cc2cn(C)c3ccccc23)C2CCCCCC2)c1,-29%,-14%
CCc1nc(CN2CCCC(C(=O)Nc3ccc(-c4cccc(OC)c4)cc3)C2)c(C)[nH]1 (configuration not stated),-18%,-22%
FC(F)(F)c1ccc2c(c1)nnn2C1CCN(Cc2nnnn2Cc2ccccc2)CC1,-10%,-2%
Cc1cccc(C)c1OCC(=O)Nc1cc(Cl)ccc1-n1cncn1,0%,-11%
COc1ccc(S(=O)(=O)c2c(Nc3ccc(C)cc3C)sc(C(=O)c3ccc(F)cc3)c2N)cc1,-15%,-12%
Cc1ccc(C(=O)NNC(=S)NCC2CCCO2)cc1[N+](=O)[O-] (configuration not stated),i,-6%
CN1C(=O)[C@@H]2C[C@@]3([C@@]45C[C@H]6C(=O)N(C)[C@@H](Cc7ccccc7)C(=O)N6[C@@H]4Nc4ccccc45)c4ccccc4N[C@H]3N2C(=O)[C@@H]1Cc1ccccc1,?,-18%
COc1cccc(C(=O)N/N=C(/CCC(=O)O)c2ccccc2)c1,-8%,-25%
O=[N+]([O-])c1ccc(NCCCN2CCOCC2)c([N+](=O)[O-])c1,-12%,34%[activator]
CC1(c2nnc(-c3cccc(Cl)c3)o2)CC(c2ccccc2Br)=NO1 (configuration not stated),-23%,-6%
CC1(C)CC(NNCCC#N)=CC(=[N+]2CCCC2)C1,-2%,10%
CCOC(=O)C1CCN(CC(=O)NC(=O)NC2CCCCC2)CC1,i,-18%
COc1ccc2oc(=O)c(-c3nc(-c4ccc(C)c(C)c4)cs3)cc2c1,5%,44%[activator]
Fc1ccc(-n2ncc3c(NCCCc4ccccc4)ncnc32)cc1,-12%,-12%
CCOC(=O)N1CCC(NC(=O)CCS(=O)(=O)c2ccc3c(c2)CCN3C(C)=O)CC1,-4%,8%
CCCCn1c(-c2cccnc2)n[nH]c1=S,-12%,-3%
CC1=C(C(=O)N(C)C)C(c2ccc(C)s2)NC(=S)N1 (configuration not stated),-14%,3%
COc1ccccc1N1CCN(C(=O)CCc2c(C)nn(-c3ccc(N4CCCC4)nn3)c2C)CC1,-9%,-9%
Cc1cccc(C)c1NC(=O)C1(N(Cc2ccco2)C(=O)c2ccccn2)CCCC1,i,-9%
CCOC(=O)N1CCN(C(=O)C2CCN(C(=O)c3cc(OC)cc(OC)c3)CC2)CC1,-12%,-6%
O=C(O)c1ccc(CCCc2ccccc2)cc1,i,5%
COC(=O)C1CCN(C(=O)N2CCOCC2)CC1,-8%,-2%
O=C(CSc1nnnn1C1CCCC1)Nc1ccc2c(c1)OCCO2,-18%,-1%
Cc1ccc2c(c1)C1OCCC1C1N2C(=O)C2C(C(=O)O)C3C=CC21O3 (configuration not stated),-9%,-8%
CCOC(=O)C1CCN(c2c(N(C)Cc3ccco3)c(=O)c2=O)CC1,-10%,-11%
CC(=O)N1c2ccc(S(=O)(=O)NCC3CCC(C(=O)N(C)Cc4ccccc4)CC3)cc2CC1C (configuration not stated),i,-20%
Cc1cc(C)n2cc(CSc3ccccn3)nc2n1,-10%,-5%
Cc1ccc(CN(C(=O)COc2ccc([N+](=O)[O-])cc2)c2ccccn2)o1,-16%,-1%
Cc1ccc(C)c(CSc2nnc(-c3cccnc3)o2)c1,-21%,-22%
O=C(COC(=O)c1ccccc1Nc1ccccc1)NCc1ccccc1Cl,-14%,-7%
CC(=O)OCC1=C(C(=O)O)N2C(=O)C(NC(=O)CCCC(N)C(=O)O)C2SC1 (configuration not stated),-15%,-3%
Cc1ccc(N(CC(N)=O)C2SC(=O)N(Cc3cccc(C(=O)O)c3)C2=O)cc1 (configuration not stated),·,-8%
Cn1c(=O)c2c(ncn2CC(=O)OCC(=O)Nc2sccc2C(N)=O)n(C)c1=O,i,-14%
Cc1cccc(N2C(=O)N3[C@H](c4ccc(Br)cc4)[C@@H]4C(=O)N(C(C)(C)C)C(=O)[C@@H]4[C@]3(Cc3ccc(Cl)cc3)C2=O)c1,-11%,-9%
CCCCNC(=O)NS(=O)(=O)c1cnccc1Sc1ccc(Cl)cc1,·,-16%
O=C(NNC(=O)c1cccc(Br)c1)Nc1ccc(Cl)cc1,9%,-6%
[O-][N+]12CCCc3cccc(c31)CCC2,i,0%
C[N+](C)(C)CCC(=O)N1C/C(=C/c2ccccc2)C(=O)/C(=C\c2ccccc2)C1,?,?
Nc1cc(Oc2cccnc2)cc([N+](=O)[O-])c1,-8%,-9%
COc1ccc(C(=O)COC(=O)C2CCN(S(=O)(=O)c3cccc4cccnc34)CC2)cc1,-14%,-5%
COC(=O)CSc1nnc(CNC(=O)c2ccc(S(=O)(=O)N(C)C)cc2)n1C,-5%,-13%
COC(=O)c1sc(NC(=O)c2c(-c3ccccc3)noc2C)nc1C,-18%,-16%
Cc1cc(S(=O)(=O)Nc2ccc(C(=O)NCC(c3ccco3)N3CCCCC3)cc2)ccc1F (configuration not stated),-4%,-15%
c1csc(-c2nn3c(Cn4cnc5ccccc54)nnc3s2)c1,-2%,-13%
COc1ccc2c(c1)OC(c1ccccc1)(C(F)(F)F)NC2=O (configuration not stated),-8%,-3%
O=C(CN1CCOCC1)n1c2ccccc2c2ccccc21,·,?
S=c1[nH]nc(-c2cc(-c3ccccc3)n[nH]2)n1/N=C/c1c(Cl)cccc1Cl,-8%,-21%
COc1ccccc1-c1nc2ccc(Cl)cc2c(=O)n1O,i,-5%
C[C@H](CO)N1C[C@H](C)[C@@H](CN(C)Cc2ccc(Oc3ccccc3)cc2)Oc2c(NC(=O)C3CC3)cccc2C1=O,-28%,?
